Screening results (PubChem BioAssay)
BmaI1: BmaI1 acyl-homoserine lactone synthase inhibition – biochemical, fluorescence intensity, with counterscreen (AID 720554). BmaI1 enzyme assay, fluorescence intensity; active compounds read high; test concentration not given here; a few actives read low; strong numbers were not always called active. inhibition, %. 12,000 compounds, 0.4% hits;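 active means both replicates within 2 robust z-scores of the inhibited control and a quiet counterscreen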;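 further: 0% = uninhibited enzyme and 100% = inhibited control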
BmaI1 counterscreen: second read-out of BmaI1, no call of its own (marks repeat the call); inhibition, %; measured here: counterscreen; design of the counterscreen not given here;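 first of two replicates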
Starred values were filed as active, the others as inactive. An excerpt; count on the stated rates, not on these rows.

| structure | BmaI1 | BmaI1 counterscreen |
| --- | --- | --- |
| Cc1cccc(NC(=O)CO/N=C/c2ccc3c(c2)OCO3)c1 | 22 | 9 |
| COc1ccc(NC(=O)COc2ccc(/C=N/n3c(C)nnc3C)cc2OC)cc1 | 14 | 4 |
| CC(=O)Nc1ccc(SCC(=O)Nc2ccc(C#N)cc2)cc1 | 12 | 10 |
| CCn1c(-c2ccc3c(c2)OCCO3)cnc1SCC(=O)N1CCCC1=O | 4 | -1 |
| Cc1csc(Sc2ccc(S(=O)(=O)N3CCCC3)cn2)n1 | 10 | -2 |
| O=C(O)CSCc1cn2cc(Cl)ccc2n1 | 0 | 2 |
| CS(=O)(=O)N(CCC#N)Cc1ccc(/C=C2\C(=O)N(c3ccccc3)c3ccccc32)o1 | 2 | 8 |
| O=C(CSC1=NCCS1)NC1CCCC1 | 4 | 4 |
| O=C(CSc1ncccc1C(=O)O)NC12CC3CC(CC(C3)C1)C2 | 10 | 0 |
| N#CC(C#N)(CC(=O)N1CCCc2ccccc21)CC(=O)N1CCCc2ccccc21 | 6 | -2 |
| O=C(CSC(=S)N1CCCC1)NC1CCCCCC1 | 12 | 2 |
| O=C(OCc1cc(Cl)cc2c1OCOC2)c1cccnc1Cl | 16 | 0 |
| O=c1[nH]nc(SCc2nc3ccccc3s2)n1C1CC1 | 77 | 20 |
| O=C(NCCc1ccc(Cl)cc1)c1cc(=O)[nH]c(=O)[nH]1 | 2 | 6 |
| O=C(c1ccccc1)N1CCN(c2cccc(Cl)c2)CC1 | -10 | 10 |
| COc1ccc(NC(=O)c2c[nH]c(=O)[nH]c2=O)cc1 | -10 | 8 |
| CN(CC1COc2ccccc2O1)c1nnnn1-c1ccccc1 (stereo not drawn) | -7 | -5 |
| NC(=S)Sc1nncn1C(=O)c1ccc(=O)[nH]n1 | 6 | 2 |
| O=S1(=O)c2cccc3cccc(c23)N1CC1CN(Cc2ccccc2)CCO1 (stereo not drawn) | 11 | 3 |
| CC(NS(=O)(=O)c1ccc(N)cc1)C1CC2CCC1C2 (stereo not drawn) | 8 | -2 |
| O=C(c1ccccc1C(F)(F)F)N1CCCc2ccccc21 | 12 | 2 |
| CC1CCCC/C1=N\NC(N)=O (stereo not drawn) | -52 | -65 |
| COC(=O)CN1CC(=O)NC(=O)C1 | -18 | -10 |
| C=CCn1c(C2CC(=O)N(c3cccc(C)c3)C2)nc2ccccc21 (stereo not drawn) | 6 | -2 |
| O=C1CCC(C(=O)OCc2nnc(-c3ccccc3)o2)=NN1 | 9 | -4 |
| O=C(COC(=O)c1ccc2c(=O)n3c(nc2c1)CCCCC3)Nc1ccc2c(c1)OCCO2 | 12 | 5 |
| C[n+]1ccccc1/C=N/O | 4 | 14 |
| CCC(C)n1nccc1NC(=O)C(C)Sc1ccccc1F (stereo not drawn) | 8 | 4 |
| CC(C)N(CC(N)=O)c1nc(-c2cccnc2)nc2ccccc12 | 12 | 16 |
| CS/C(=N\S(=O)(=O)c1ccc(C)cc1)N1CCCCCC1 | 18 | 2 |

Carrying on:
| structure | BmaI1 | BmaI1 counterscreen |
| --- | --- | --- |
| O=C(COC(=O)C1(CC(=O)N2CCOCC2)CCCC1)Nc1c(F)cccc1F | 10 | 2 |
| CCOC(=O)N1CCN(C(=O)C(NC(=O)c2ccc(C(C)(C)C)cc2)C(C)C)CC1 (stereo not drawn) | 0 | 0 |
| CCOP(=O)(/C(C#N)=C(\C)O)c1ccccc1 (stereo not drawn) | 7 | -3 |
| CCOC(=O)C1(c2ccccc2)CCN(CCC(C#N)(c2ccccc2)c2ccccc2)CC1 | 6 | 4 |
| O=C(CCNC(=O)c1ccccc1)Oc1ccc2c(c1)OCO2 | 28 | 8 |
| Cc1cc(=O)[nH]c(NN=C2CCN(Cc3ccccc3)CC2)n1 | -41 | -28 |
| CCCn1c(C)cc(-c2csc(NC(=O)Cc3ccc(OC)cc3)n2)c1C | 12 | 2 |
| Nc1ccc2nc(N3CCOCC3)sc2c1 | 83 | 59 |
| CCS(=O)(=O)N1CCc2cc(C(=O)CSc3nnc(-c4cccs4)n3C3CC3)ccc21 | 27 | -2 |
| CSc1ccccc1NC(=O)CN1c2ccccc2CC1C (stereo not drawn) | -3 | -2 |
| O=C1CCCC(O)=C1N=Nc1ccc(S(=O)(=O)N2CCOCC2)cc1 | 14 | 16 |
| O=C1Cc2cc(C(=O)CSc3nnc(-c4cccs4)n3CC3CCCO3)ccc2N1 (stereo not drawn) | 8 | 2 |
| Cc1noc(C)c1COC(=O)/C=C/c1ccco1 | 54 | 4 |
| O=C(c1cccnc1)N1CCN(C/C=C/c2ccccc2)CC1 | 9 | 3 |
| COCC(C)n1c(C)cc(C2=NNC(=Nc3ccc(F)cc3F)SC2)c1C (stereo not drawn) | 20 | 10 |
| COc1ccc(CC(=O)Nc2ccc3c(c2)OCO3)cc1S(=O)(=O)N1CCOCC1 | 14 | 12 |
| Cc1cc(NC(=O)CSc2ncnc3sc(C)c(C)c23)n(-c2ccccc2)n1 | 0 | 0 |
| CC(C)(C)OC(=O)CSc1nc2ccccc2n1CCC#N | 10 | 14 |
| COc1cc(C2=Nc3c(c(C)nn3-c3ccccc3)P(=O)(N3CCOCC3)O2)cc(OC)c1OC (stereo not drawn) | 12 | 8 |
| Nn1c(SCC(=O)Nc2cccc(Br)c2)nnc1C1CC1 | 6 | 9 |
| O=C(Cc1ccc2c(c1)OCCO2)Nc1ccccc1C(=O)Nc1ccc2c(c1)OCO2 | -11 | -6 |
| COc1ccc(CN(C)C(=O)C2CC(=O)N(C3CCCC3)C2)cc1F (stereo not drawn) | 10 | 4 |
| Cc1nnc(COc2ccc3ccccc3c2Br)o1 | 22 | 13 |
| CCCCn1c(CCC(=O)OCc2csc(-c3ccccc3)n2)nc2cc(S(=O)(=O)N3CCOCC3)ccc21 | -12 | 0 |
| O=C1c2ccccc2C(=O)c2c1oc1c3c(ccc21)OCN(CC1CCCO1)C3 (stereo not drawn) | 20 | 7 |
| NS(=O)(=O)c1cc(C(=O)OC2CCOC2=O)ccc1Cl (stereo not drawn) | 12 | 10 |
| OC[C@H]1O[C@@H](n2cnc3c(N[C@H]4CCC[C@@H]4O)ncnc32)[C@@H](O)C1O (stereo partly drawn) | 6 | 16 |
| CC(C#N)Sc1nnc(-c2cccnc2)n1C1CCCCC1C (stereo not drawn) | 11 | 10 |
| CCOc1ccc(-n2c(O)c(/C=N/Nc3nnc(C)c(=O)[nH]3)c3ccccc3c2=O)cc1 | 78 | 49 |
| O=c1c(/C=N/NC2CCS(=O)(=O)C2)c(N2CCCCC2)nc2ccccn12 (stereo not drawn) | -25 | -7 |

One compound at a time (already shown). Values in the order: BmaI1 | BmaI1 counterscreen
Profile of `O=C1CCCC(O)=C1N=Nc1ccc(S(=O)(=O)N2CCOCC2)cc1` → 14 | 16
Profile of `O=C1c2ccccc2C(=O)c2c1oc1c3c(ccc21)OCN(CC1CCCO1)C3` (stereo not drawn) → 20 | 7
Profile of `COCC(C)n1c(C)cc(C2=NNC(=Nc3ccc(F)cc3F)SC2)c1C` (stereo not drawn) → 20 | 10
Profile of `COc1ccc(CC(=O)Nc2ccc3c(c2)OCO3)cc1S(=O)(=O)N1CCOCC1` → 14 | 12
Profile of `O=c1c(/C=N/NC2CCS(=O)(=O)C2)c(N2CCCCC2)nc2ccccn12` (stereo not drawn) → -25 | -7

Next entries:
| structure | BmaI1 | BmaI1 counterscreen |
| --- | --- | --- |
| Cc1ccc2nc(COC(=O)c3ccc(OCc4c(C)noc4C)cc3)cc(=O)n2c1 | 12 | 6 |
| N#Cc1nncn1CN1CCN(S(=O)(=O)c2cc(C(F)(F)F)cc(C(F)(F)F)c2)CC1 | 12 | 4 |
| CN(C(=O)CN1C(=O)C2CC=CCC2C1=O)C(c1ccccc1)c1ccccc1 (stereo not drawn) | 10 | 7 |
| CCC(C)CCCNc1n[nH]c(=S)s1 (stereo not drawn) | 109 | 82 |
| N#CCCn1nc(-c2ccccc2)cc1Nc1ccccc1NC(=O)c1ccccc1 | 46 | 28 |
| COc1ccc(C2=N/C(=C\c3ccc(-c4ccc(S(=O)(=O)Nc5ncccn5)cc4)o3)C(=O)O2)cc1 | 6 | -2 |
| CC1C2=C(CC(C)(C)CC2=O)OC2=C1C(=O)CC(C)(C)C2 | 10 | 4 |
| CC(C)[C@H](NC(=O)c1cc2ccccc2o1)c1nc2ccccc2[nH]1 | 12 | 12 |
| Cc1nn(CCC#N)c2nc(-c3ccc(F)cc3)cc(C(=O)O)c12 | 16 | 14 |
| O=C(Nc1ccc2nc(N3CCOCC3)sc2c1)c1cncn1-c1ccccc1 | 10 | 8 |
| CCOC(=O)N1CCN(C(=O)COC(=O)c2cccc(S(C)(=O)=O)c2)CC1 | 13 | 9 |
| CCOC(=O)C1=C(CC)Nc2ccccc2N=C1NC(=O)C1CCCO1 (stereo not drawn) | 15 | 10 |
| O=C(CSC1=Nc2ccccc2CS1)c1ccc[nH]1 | 16 | 10 |
| CC(=O)N(c1ccccc1)c1nc(COC(=O)C2CCC2)cs1 | 2 | -2 |
| O=C(COC(=O)C12CC3CC(CC(O)(C3)C1)C2)Nc1cccc2nsnc12 | 13 | 14 |
| CCOc1ccc(S(=O)(=O)N(C)c2ccc(OCC(=O)N(C)C3CCN(C)CC3)cc2)cc1 | 0 | 0 |
| C=CCn1c(C)cc(C(=O)COC(=O)c2oc3ccccc3c2COC)c1C | -4 | 1 |
| Cc1cnc(C(=O)OC(C)C(=O)Nc2cccc(C(F)(F)F)c2)cn1 (stereo not drawn) | 14 | 2 |
| COc1cccc(CNC(=O)c2cccc(S(=O)(=O)N3CC(C)OC(C)C3)c2)c1 (stereo not drawn) | 17 | 12 |
| CC1CCc2ccccc2N1S(=O)(=O)c1ccc(CCC(=O)O)cc1 (stereo not drawn) | 10 | 1 |
| CN(C)C(CNC(=O)c1ccc(S(=O)(=O)N(C)C)cc1)Cc1ccccc1 (stereo not drawn) | 6 | 8 |
| N#Cc1ccc(CN2CCN(CC(=O)NC(=O)Nc3ccccc3F)CC2)cc1 | -4 | 4 |
| CCOc1ccccc1NC(=O)COC(=O)CCc1nc(=O)c2ccccc2n1C | 10 | 14 |
| Cc1ccc2c(CC(=O)OC(C)C(=O)Nc3ccc4c(c3)OCCO4)coc2c1 (stereo not drawn) | 14 | 0 |
| O=C(COc1ccc(-c2nnco2)cc1)NC1CCS(=O)(=O)C1 (stereo not drawn) | 12 | 8 |
| O=C(CCc1c[nH]c2ccccc12)NCC(F)(F)F | 2 | 3 |
| O=C(CN1CCN(c2ccc(O)cc2)CC1)Nc1cc(C(F)(F)F)ccc1N1CCOCC1 | 80 | 1 |
| COc1ccc(-c2nnc(SCC(=O)NCCC3=CCCCC3)o2)cc1 | -2 | -7 |
| CC1(C)S[C@@H]2[C@H](NC(=O)[C@H](N)c3ccc(O)cc3)C(=O)N2[C@H]1C(=O)O | 4 | 10 |
| COc1ccc(OCC(=O)Nc2cc3c(cc2C(=O)O)OCCCO3)cc1 | 12 | 0 |

Next structures follow.
| structure | BmaI1 | BmaI1 counterscreen |
| --- | --- | --- |
| CCC(C)N1CCC(N)=NC1=O (stereo not drawn) | -8 | -3 |
| NCc1nnc2ccccn12 | -10 | -1 |
| N#CC(C(=O)NCCc1ccccc1)c1nc2ccccc2nc1N1CCCCCC1 (stereo not drawn) | 8 | 2 |
| NC(=O)COC(=O)c1ccc(-c2ccc(C(=O)OCC(N)=O)s2)s1 | 12 | 18 |
| COc1cc(/C=C/C(=O)OCC(=O)Nc2ccc(NC(C)=O)cc2)ccc1O | 58 | 34 |
| C=CCN(Cc1ccc(Cl)s1)c1ncnc2sccc12 | 18 | 0 |
| CCC(CC)NC(=O)c1ccc(OCc2c(C)noc2C)c(OC)c1 | 8 | 6 |
| CCc1noc(C)c1C(=O)Nc1ccc(N(C)C)cc1 | 42 | -62 |
| O=C(NCC(=O)N1CCSc2ccccc21)c1ccccc1F | 30 | 36 |
| O=C(OCc1ccccc1)/C(=C/c1cccs1)c1cccs1 | 7 | -2 |
| COc1ccc(Cc2nnc(SCCN3C(=O)c4ccccc4C3=O)n2N)cc1 | 20 | 5 |
| O=C(CSCCCc1nc(-c2ccccc2)no1)Nc1ccc(F)c(F)c1 | 5 | 4 |
| CN1CCN(C(=O)/C=C/c2c(Cl)nc3ccccn23)CC1 | 20 | 13 |
| COc1cc2c(cc1NC(=O)CN1CC(C)OC(C)C1)oc1ccccc12 (stereo not drawn) | 18 | 18 |
| O=c1c2c3c(sc2nc(SCCn2ccnc2)n1-c1ccccc1)CCCC3 | 20 | 9 |
| COC(=O)c1ccc(COc2ncnc3c2cnn3-c2ccccc2)o1 | 15 | -2 |
| O=C1CCCN1C(c1ccc(Br)cc1)N1CCCC1=O | 6 | -2 |
| CCn1c2ccccc2c2nnc(SCC(=O)Nc3ccc4c(c3)OCO4)nc21 | 10 | 9 |
| CN1C=C(C(F)(F)F)C=CC1=C1C(=O)c2ccccc2C1=O | 36 | 11 |
| CC/C(O)=C(\C#N)c1nnc2n1CCCCC2 | 2 | 2 |
| C/C(=N\NC(=O)c1cccnc1)c1ccc(-n2ccnc2)cc1 | 14 | 26 |
| CN(C)c1ccc(P(=O)(C2CCCC2=O)C2CCCC2=O)cc1 (stereo not drawn) | 4 | -10 |
| COc1ccccc1S(=O)(=O)N(C)Cc1ccccc1 | -2 | 2 |
| CCC(=O)Nc1ccc(C(=O)COc2cccc(-n3cnnn3)c2)cc1 | 0 | 5 |
| Cc1noc(C)c1S(N)(=O)=O | 3 | 9 |
| O=C1CCSC(=O)N1CN1CCN(S(=O)(=O)c2ccc(Cl)cc2)CC1 | -3 | -8 |
| CC1CCCCC1N=C1NN=C(c2ccccc2)CS1 (stereo not drawn) | 28 | 24 |
| C=CCn1c(SCC(=O)N2CCCCC2C)nc2ccccc2c1=O (stereo not drawn) | 13 | 12 |
| CCc1ccccc1N1CC(C(=O)OCCN2C(=O)c3ccccc3C2=O)CC1=O (stereo not drawn) | 4 | 5 |
| Cc1cccc(NC(=S)N2CCCCC2C(N)=O)c1 (stereo not drawn) | 17 | 6 |
| Cc1nc2cc(C(=O)OCC(=O)NC3CCS(=O)(=O)C3)ccc2n1-c1ccccc1 (stereo not drawn) | 8 | -2 |
| CC(C)C(C)NC(=O)Nc1ccc(Cl)cc1 (stereo not drawn) | 2 | 10 |
